Screens (PubChem BioAssay)
Six1-Eya2 inh: Six1/Eya2 interaction inhibition; Q15475+O00167; 360,000 compounds, 0.56% hits; AID 651725; AlphaScreen GST-Six1/His-Eya2 binding, biochemical; stronger effect = lower value; control for the full effect not named in the record; activity change, % (test concentration not listed); in the data active = activity change below about -65%; inconclusive = about -30% to -65%; inactive = above about -30%; also: % is scaled to controls: 0 for no effect and ±100 for the full control effect
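Compounds are tested against tagged Six1 and Eya2 proteins bridged by glutathione donor and nickel acceptor beads; after a one-hour incubation at 37 °C without light, AlphaScreen emission is recorded.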
TRPV1 PAM: human TRPV1 potentiation; TRPV1-expressing cells, Fluo-8 calcium influx, capsaicin EC20 potentiation; host cell line not named in the record; control for the full effect not named in the record; potentiation, % at 8.33 µM; 320,000 compounds, 0.02% hits; active means potentiation above 80%; inconclusive means 30% to 80%; inactive means below 30%; also: 0% is about no effect
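TRPV1-expressing cells were cultured overnight at 35.5C and loaded with Fluo-8 calcium dye for 40 to 90 min at room temperature. After a 10 s baseline, compound was added and calcium influx was read kinetically for 3 min (ex 480/em 520 nm).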
D2 potentiator: human D2 receptor positive allosteric modulation | P14416 | AID 624464 | potentiation, % (concentration not given with the values) | 360,000 compounds, 0.23% hits | DiscoveRx D2 beta-arrestin cells, luminescence, 90 min; 100% = 57 uM dopamine signal; active = potentiation of 50% or more; inconclusive = 30% to 50%; inactive = 30% or less;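 also: tested on top of an EC20 dose of dopamine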
Target sequence (P14416 whole entry, looked up): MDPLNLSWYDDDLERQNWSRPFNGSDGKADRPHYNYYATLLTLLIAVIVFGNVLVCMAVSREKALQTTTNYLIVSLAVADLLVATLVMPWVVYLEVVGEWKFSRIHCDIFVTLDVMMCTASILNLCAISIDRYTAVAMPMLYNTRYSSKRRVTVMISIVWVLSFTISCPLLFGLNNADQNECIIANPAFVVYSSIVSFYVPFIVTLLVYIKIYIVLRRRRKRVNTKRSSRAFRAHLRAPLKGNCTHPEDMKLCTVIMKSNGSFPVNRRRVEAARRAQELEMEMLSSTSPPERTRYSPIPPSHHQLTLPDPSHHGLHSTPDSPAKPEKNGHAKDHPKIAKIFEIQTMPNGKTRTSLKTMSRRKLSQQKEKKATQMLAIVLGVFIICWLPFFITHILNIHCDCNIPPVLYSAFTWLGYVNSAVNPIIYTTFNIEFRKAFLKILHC
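D2 cells co-treated with compound plus 50 nM dopamine (EC20) for 90 min at 37 deg C to detect potentiation. Beta-arrestin recruitment was read as enzyme-fragment luminescence after 1 h at ambient temperature. Full response was set by 57 uM dopamine.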
TRPML1 ag: agonists of human TRPML1 channel; AID 624414; activation, % (test concentration not listed); Q9GZU1; 410,000 compounds, 0.12% hits; TRPML1-expressing cells, Ca2+ dye fluorescence, FDSS; host cell line not named in the record; reference of the full effect not given here; in the data active = activation above about 50%; inconclusive = about 30% to 50%; inactive = below about 30%; also: 0% is about no effect; the text of the record puts the active cut at 80%
Target sequence (Q9GZU1 whole entry, looked up): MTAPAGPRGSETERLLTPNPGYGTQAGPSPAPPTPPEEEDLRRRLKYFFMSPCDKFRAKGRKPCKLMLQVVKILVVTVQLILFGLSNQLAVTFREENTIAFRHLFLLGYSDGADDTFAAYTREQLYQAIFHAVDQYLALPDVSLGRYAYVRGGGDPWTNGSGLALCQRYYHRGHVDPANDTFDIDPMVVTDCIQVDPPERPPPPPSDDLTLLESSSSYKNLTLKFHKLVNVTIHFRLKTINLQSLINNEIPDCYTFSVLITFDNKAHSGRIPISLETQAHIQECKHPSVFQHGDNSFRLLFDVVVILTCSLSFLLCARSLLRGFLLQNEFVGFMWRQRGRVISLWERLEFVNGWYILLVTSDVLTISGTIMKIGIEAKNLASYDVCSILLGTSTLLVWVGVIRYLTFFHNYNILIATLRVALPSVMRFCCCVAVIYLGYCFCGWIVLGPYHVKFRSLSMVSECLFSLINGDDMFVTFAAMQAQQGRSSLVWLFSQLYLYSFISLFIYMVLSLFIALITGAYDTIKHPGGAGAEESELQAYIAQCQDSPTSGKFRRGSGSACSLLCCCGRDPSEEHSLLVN
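TRPML1-DL cells, Tet-induced overnight (~16 h, 37 degrees C), loaded 45-90 min at room temperature with Ca8 no-wash calcium dye plus quencher. FDSS fluorescence: 10 s baseline, compound pin-transfer, 110 s agonist read, then EC80 54-4 (4uM final) and 110 s antagonist read.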
CtBP-E1A inh: blocks the CtBP interaction with E1A. activity change, % (test concentration not listed). AID 651724. 340,000 compounds, 0.49% hits. AlphaScreen GST-E1A/His-CtBP binding, 1536-well; stronger effect = lower value; control for the full effect not named in the record; in the data active means activity change below about -65%; inconclusive means about -30% to -65%; inactive means above about -30%; also: % is scaled to controls: 0 for no effect and ±100 for the full control effect
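Steps: dispense buffer (Tris pH 8.0, NaCl 300 mM, TCEP 1 mM, BSA, Tween 20); add 5X protein mix (GST-E1A, His-CtBP, 125 nM each); pin 23 nL compound; 2 h at 37 °C, dark; add 5X beads (50 ug/mL); 1 h; read.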
TRPML1 blocker: human mucolipin-1 channel inhibition. Q9GZU1. TRPML1-inducible cells, Ca2+ dye fluorescence, FDSS; stronger effect = lower value; inhibition of EC80 agonist-evoked calcium signal. activity change, negative = inhibition, % (concentration not given with the values). 390,000 compounds, 0.02% hits; in the data active means activity change below about -50%; inconclusive means about -30% to -50%; inactive means above about -30%;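 also: stimulus is agonist 54-4 at its EC80 concentration; % is scaled to controls: 0 for no effect and ±100 for the full control effect; the text of the record puts the active cut at -80%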
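TRPML1-DL cells, Tet-induced overnight (~16 h, 37 °C) at 1,500 cells/well, were loaded with Ca8 no-wash dye plus quencher for 45-90 min at room temperature. Compounds were pinned during FDSS kinetic reading; agonist 54-4 at EC80 (4 uM final) then added.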
The depositor's hits bear a star; ? = inconclusive; / = no result given; & = joins results of further samples.

nr	molecule	Six1-Eya2 inh	TRPV1 PAM	D2 potentiator	TRPML1 ag	CtBP-E1A inh	TRPML1 blocker
1	Cc1cc(N2CCC(N(C)C3CCCC3)CC2)nc2cc(O)ccc12	1	-5	-6	-0.1	0	1
2	Cc1ccc(-n2c(SCC(=O)N3CC(=O)Nc4ccccc43)nc3ccccc3c2=O)cc1	-1	-1	-17	5.4	3	28
3	COC(=O)c1ccc(COc2ccccc2/C=C(\C#N)C(=O)Nc2c(C)cc(C)cc2C)cc1	-6	3	-4	1.6	-4	9
4	CSc1ccccc1-n1nnnc1SCC(=O)Nc1ccccc1C	-1	16	-4	4.4	-2	15
5	COc1ccc(C(C(=O)NCc2ccccc2)N(Cc2ccc3c(c2)OCO3)C(=O)c2cnccn2)cc1 (stereo not drawn)	-2	-9	-2	0.8	-8	-8
6	O=C(CN1CCN(c2ccccn2)CC1)Nc1cccc(F)c1	0	15	-4	1.5	/	7
7	CC(NS(=O)(=O)c1ccc(Cl)c(Cl)c1)C(=O)Nc1cccnc1 (stereo not drawn)	8	/	-21	0.3	-3	7
8	Cc1ccc(/C=N/NC(=O)Cc2cccs2)o1	4	?	-5	0.1	2	-26
9	COc1cc(C)c(C(C)C)cc1S(=O)(=O)n1ccnc1	6	22	-13	1.6	-5	39
10	Cc1ccc(S(=O)(=O)Nc2c(NC3CCCCC3)c3ccccc3oc2=O)c(C)c1	-2	16	-11	19	0	7
11	COc1ccccc1Oc1ccc2c(c1)C(=O)N(c1ccc(O)cc1)C2=O	-3	1	0	0.5	0	-3
12	CC(=O)Nc1ccc(NC(=O)C(C)OC(=O)CNS(=O)(=O)c2cccc(Cl)c2)cc1 (stereo not drawn)	-1	6	-2	-0.3	11	3
13	CCOC(=O)N1CCN(S(=O)(=O)c2ccc3c(c2)CCN3C(=O)C2CCC2)CC1	10	-3	6	-1.2	4	-9
14	CCC(=O)/C=C1/Sc2ccc(OC)cc2N1CCO	-14	1	-3	-0.9	-2	9
15	O=C(NNCc1ccccc1)c1ccccc1	-5	/	-5	-0.2	6	-4

Arranged by length of the SMILES (rising): part of the list above.
nr	molecule	Six1-Eya2 inh	TRPV1 PAM	D2 potentiator	TRPML1 ag	CtBP-E1A inh	TRPML1 blocker
15	O=C(NNCc1ccccc1)c1ccccc1	-5	/	-5	-0.2	6	-4
14	CCC(=O)/C=C1/Sc2ccc(OC)cc2N1CCO	-14	1	-3	-0.9	-2	9
11	COc1ccccc1Oc1ccc2c(c1)C(=O)N(c1ccc(O)cc1)C2=O	-3	1	0	0.5	0	-3
10	Cc1ccc(S(=O)(=O)Nc2c(NC3CCCCC3)c3ccccc3oc2=O)c(C)c1	-2	16	-11	19	0	7

Carrying on.
nr	molecule	Six1-Eya2 inh	TRPV1 PAM	D2 potentiator	TRPML1 ag	CtBP-E1A inh	TRPML1 blocker
16	CCOc1ccc(N(CC(=O)Nc2cc(OC)cc(OC)c2)S(=O)(=O)c2c(C)[nH]c(=O)[nH]c2=O)cc1	-5	2	-7	-0.2&0.0	-23	-7&18
17	CN(Cc1ccccc1)C(=O)c1ccc(Nc2nc(C(N)Cc3ccc(C(F)(F)F)cc3)cs2)nc1 (stereo not drawn)	-4	/	-7	4.5	-14	/
18	Cc1cccc2cc(C3CC(c4cccs4)=NN3C(=O)CCC(=O)O)c(Cl)nc12 (stereo not drawn)	2	2	1	0.0	4	15
19	CCOc1ccc(OCCOCCN2CCOCC2)cc1	-6	11	-9	-0.2	5	2
20	CN1CCC2(CC1)N=C(c1ccc(F)cc1)C(=S)N2C(=O)c1ccccc1	4	18	5	2.5	0	-9
21	CC(=O)Nc1ccc(S(=O)(=O)NCCC(=O)NNC(=O)c2ccncc2)cc1	-4	3	-12	0.4	3	-6
22	CCOc1ccccc1-c1nc2c(s1)CCc1onc(-c3ccc(OC)cc3)c1-2	3	/	-15	-0.8	2	-4
23	COc1ccc(-c2cc(C(F)(F)F)nc(SCCC(=O)NCc3ccco3)n2)cc1	-5	16	-18	0.8	0	11
24	ON=C(c1ccccc1)c1ccc2c3c(cccc13)CC2	-11	/	-10	0.8	0	-15
25	COc1ccc(-c2noc(COc3ccc4c(c3)OCO4)n2)cc1OC	-11	-8	-9	-0.2	-6	-5
26	COc1ccc(C2=NN(C(=O)CCC(=O)O)C(c3ccccc3)C2)cc1 (stereo not drawn)	5	14	-5	1.3	-1	2
27	O=[N+]([O-])c1ccc(NN=C(C2CC2)C2CC2)c([N+](=O)[O-])c1	-12	/	0	-0.3	-10	-9
28	CN(C)c1cccc(NC(=O)Cc2ccc(F)cc2)c1	-11	-20	-4	1.4	-4	26
29	O=C(Nc1ccc2c(c1)OCCO2)C1CCN(S(=O)(=O)Cc2ccccc2)CC1	0	-3	10	1.2	0	12
30	Cn1c(=O)n(C)c2cc(/C=N/n3cnnc3)ccc21	0	-18	-6	-0.8	2	20
31	Cc1cc(C)c2c(n1)nn1c(NCCOCCO)cc(C)nc21	4	1	-1	0.2	-5	-16
32	CCOc1ccc(N(CC(=O)Nc2ccc(OC)cc2)S(C)(=O)=O)cc1	-2	-4	-5	-0.5	2	3
33	COc1cc(C(N)=O)cc(Cl)c1OC	5	-3	-11	0.3	/	6
34	COc1ccc(NC(=O)c2cc3ccc4c5ccccc5[nH]c4c3cc2O)cc1	-2	16	6	1.6	12	10
35	CCCC(c1nnnn1Cc1ccc(OC)cc1)N1CCN(C(=O)c2ccco2)CC1 (stereo not drawn)	-8	29	-4	0.6	2	18
36	COc1ccccc1-c1cc(C(=O)N/N=C/c2ccc(C)s2)c2ccccc2n1	-17	13	-42	-0.7	-17	-8
37	Cc1scc(C(=O)NCc2ccco2)c1-c1ccccc1	-4	-1	-10	3.0	1	11
38	CCCCC(C(=O)NCCC(C)C)N(CCCN1CCOCC1)C(=O)c1snc(C(N)=O)c1N (stereo not drawn)	-1	0	-27	0.1	3	3
39	NC(=O)CNC(=O)c1cccc(Cl)c1	-1	18	-2	0.1	4	15
40	Cc1ccc(C(=O)CCC(=O)N(C)CC(=O)Nc2c(Cl)cccc2Cl)cc1	1	13	-3	0.5	5	2
41	CCc1ccc2c(F)cccc2n1	5	/	-3	0.3	7	/
42	O=C1CC2(CCCCC2)Oc2ccc(Cl)cc21	8	/	-7	-0.2	-19	-7
43	CCCN=C1NC(=O)C(CC(=O)NCCc2ccccc2)S1 (stereo not drawn)	-1	-23	-9	-0.2	0	18
44	CC(C)C(=O)NC(=S)Nc1ccc(S(=O)(=O)N(C)C)cc1	9	-8	-20	0.1	3	6
45	COc1cccc(N2CCN(C(=O)CN(C)S(=O)(=O)c3ccc4c(c3)c(=O)n(C)c(=O)n4C)CC2)c1	-18	-5	2	1.1	?	-13
46	COc1ccc(-c2noc(CCCC(=O)NC3CCCCC3)n2)cc1	-2	4	-4	-0.1	1	7
47	O=C(Nc1ccccc1)Nc1cccc(-c2nnco2)c1	1	-6	-5	-0.3	/	-7
48	CCOC(=O)CSc1ncc(OC)c(Sc2ccc(Cl)cc2)n1	12	1	-9	2.1	21	6
49	C/C(Cl)=C\Cn1c(O)c(N=NC(N)=S)c2ccccc21	-26	-7	-15	1.1	-15	8
50	O=C(O)COc1ccccc1/C=N/NC(=O)CSc1nnc(SCc2ccccc2)s1	-1	?	-10	1.7	-20	10
51	O=C1COC(c2ccccc2O)=NN1CCCl	-18	/	-6	-1.0	-7	1
52	CCOCCCN(C)C1CCN(S(=O)(=O)c2csc(C(N)=O)c2)CC1	1	5	-9	0.4	3	-4
53	OC(c1ccc(F)cc1)c1nc(-c2ccccc2)cs1 (stereo not drawn)	5	/	0	0.1	12	/
54	COc1ccc(C2CC3(CC(C)(C)NC(=S)N3)Oc3cc(O)cc(C)c32)cc1OC (stereo not drawn)	4	18	-5	-0.8	-3	6
55	CCOC(=O)/C(C#N)=C/c1cc(C)n(-c2ccccc2)c1C	1	-2	-4	1.3	8	-2
56	CC1=CC(C)(C)N2C(=O)C3(C(C#N)=C(N)Oc4cc(O)ccc43)c3cccc1c32 (stereo not drawn)	-7	4	0	1.6	-10	34
57	CN(C1=C(NC(=O)c2ccc(Cl)cc2)C(=O)c2ccccc2C1=O)c1ccccc1	-86*	-2	-14	4.7	-88*	1
58	CCn1cc(C(=O)NC(=S)Nc2ccccc2[N+](=O)[O-])cn1	19	-22	-8	-0.1	0	2
59	COC(=O)c1cc(C(=O)c2c(C)cc3ccccn23)cc([N+](=O)[O-])c1	?	6	11	1.3	?	12
60	Cc1nn(C)c(Cl)c1CN1CCC(n2nccc2NC(=O)C2CCCC2)CC1	1	4	-10	-0.4	3	-1
61	Cc1ccc(-n2c(=O)c3ccc(C(=O)NCc4ccco4)cc3n(Cc3ccccc3C#N)c2=O)cc1	-5	6	-14	0.7&1.5	-3	-6&-14
62	O=C(CCc1ccccc1)NNC(=S)Nc1ccc(F)cc1	0	-1	-12	-0.1	-4	0
63	Cc1cc(NC(=O)CSCC(=O)OC(C)C(=O)N(C)Cc2ccccc2)no1 (stereo not drawn)	1	2	0	0.4	3	12
64	Cc1ccc(-c2nn(-c3ccccc3)cc2C(=O)NCC(c2cccs2)N2CCOCC2)cc1 (stereo not drawn)	-5	-5	-21	0.7	-16	1
65	Oc1ccc(N=Nc2ccc3c(c2)OCCO3)c2cccnc12	-77*	-2	-15	2.6	-84*	-19
66	CC(C)c1ccc(S(=O)(=O)N2CCN(C(=O)[C@@H]3CCCN3C(=O)c3cccs3)CC2)cc1	-3	-24	-31	0.0	-1	11
67	CC(C)C[C@H]1CN(CCCC[C@@H]2CNC(=O)C(=O)N2CC2CCCCC2)C(=O)C(=O)N1Cc1ccccc1	5	/	/	-0.2	-5	/
68	O=C(O)c1ccc(/C=N/NC(=O)C(O)(c2ccccc2)c2ccccc2)cc1	11	-7	1	0.2	-9	13
69	CC(C)c1nnc(NC(=O)C2CCN(S(=O)(=O)c3ccc(-n4cnnn4)cc3)CC2)s1	4	1	-32	3.1	/	26
